D2 agonist: Beta-Arrestin HTS for Positive Allosteric Modulators of the Human D2 Dopamine Receptor: Agonists; 360,000 tested, 0.084% active; activation, % (no concentration beside the values); DiscoveRx PathHunter D2 beta-arrestin, luminescence, 90 min; 100% = 57 uM dopamine signal; D(2) dopamine receptor (Homo sapiens), P14416; AID 624465, 2012; in the data active = activation above about 40%; inconclusive = about 15% to 40%; inactive = below about 15%; note: compound concentration not given in the record; the text of the record calls up to 30% inactive
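Agonist mode: compounds alone added to overnight-plated D2 PathHunter cells for 90 min at 37 C, with 57 uM final dopamine (EC100) defining full response. Beta-arrestin recruitment detected by chemiluminescent reagent, read after 1 h at ambient temperature.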
D2 potentiator: Beta-Arrestin HTS for Positive Allosteric Modulators of the Human D2 Dopamine Receptor: Potentiators; D(2) dopamine receptor (Homo sapiens), P14416; DiscoveRx D2 beta-arrestin cells, luminescence, 90 min; 100% = 57 uM dopamine signal; 360,000 tested, 0.23% active; potentiation, % (test concentration not listed); active = potentiation of 50% or more; inconclusive = 30% to 50%; inactive = 30% or less;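 note: compound concentration not given in the record; tested on top of an EC20 dose of dopamine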
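D2 cells co-treated with compound plus 50 nM dopamine (EC20) for 90 min at 37 deg C to detect potentiation. Beta-arrestin recruitment was read as enzyme-fragment luminescence after 1 h at ambient temperature. Full response was set by 57 uM dopamine.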
TRPML1 inh: qHTS for Inhibitors of the Human Mucolipin Transient Receptor Potential 1 (TRPML1); Mucolipin-1 (Homo sapiens), Q9GZU1; TRPML1-inducible cells, Ca2+ dye fluorescence, FDSS; active compounds read low; inhibition of EC80 agonist-evoked calcium signal; activity change, negative = inhibition, % (test concentration not listed); 390,000 tested, 0.02% active; AID 624415, 2012; in the data active means activity change below about -50%; inconclusive means about -30% to -50%; inactive means above about -30%;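 note: stimulus is agonist 54-4 at its EC80 concentration; % is set by controls: 0 for no effect and ±100 for the full control effect; compound concentration not given in the record; the text of the record puts the active cut at -80%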
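Tet-induced TRPML1-DL cells loaded with Ca8 no-wash calcium dye were read kinetically on FDSS. Compound addition was followed by EC80 agonist 54-4 (4 uM final); inhibition was read over 110 s.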
PINK1 expr mod: A Quantitative High throughput Screen to Identify Chemical Modulators of PINK1 Expression; PINK1 immunofluorescence, high-content cytometry, 24 h; Potency, µM (series often up to 76.6 µM), for inactives: top-dose activation (PINK1 increase), actives largely listed as activators; 410,000 tested, 0.2% active; active = well fitted activation curve with a large enough effect; inconclusive = small, poorly fitted or top-dose-only effect; inactive = flat fitted curve, though single readings scatter; cell line not stated here;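 note: potency is the fitted concentration of half-maximal effect; % of control where 0% means no effect; nearly all actives have a fitted effect of over 65% in size; a mitochondrial uncoupler was the plate control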
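Fluorescence from anti-PINK1 antibody, together with nuclear and cell stains, was scanned on a laser-scanning cytometer. Before staining, stable-line cells were incubated 24 hours with compounds at 5 concentrations; primary antibody 12 h at 10 degrees C.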
Six1-Eya2 blk: qHTS Assay for Inhibitors of the Six1/Eya2 Interaction | AlphaScreen GST-Six1/His-Eya2 binding, biochemical; active compounds read low; control for the full effect not named in the record | activity change, % (concentration not given with the values) | AID 651725, 2012 | 360,000 tested, 0.56% active | Homeobox protein SIX1 (Homo sapiens) + Protein phosphatase EYA2 (Homo sapiens), …; in the data active = activity change below about -65%; inconclusive = about -30% to -65%; inactive = above about -30%; note: % is set by controls: 0 for no effect and ±100 for the full control effect
Target sequence (O00167 whole entry, looked up): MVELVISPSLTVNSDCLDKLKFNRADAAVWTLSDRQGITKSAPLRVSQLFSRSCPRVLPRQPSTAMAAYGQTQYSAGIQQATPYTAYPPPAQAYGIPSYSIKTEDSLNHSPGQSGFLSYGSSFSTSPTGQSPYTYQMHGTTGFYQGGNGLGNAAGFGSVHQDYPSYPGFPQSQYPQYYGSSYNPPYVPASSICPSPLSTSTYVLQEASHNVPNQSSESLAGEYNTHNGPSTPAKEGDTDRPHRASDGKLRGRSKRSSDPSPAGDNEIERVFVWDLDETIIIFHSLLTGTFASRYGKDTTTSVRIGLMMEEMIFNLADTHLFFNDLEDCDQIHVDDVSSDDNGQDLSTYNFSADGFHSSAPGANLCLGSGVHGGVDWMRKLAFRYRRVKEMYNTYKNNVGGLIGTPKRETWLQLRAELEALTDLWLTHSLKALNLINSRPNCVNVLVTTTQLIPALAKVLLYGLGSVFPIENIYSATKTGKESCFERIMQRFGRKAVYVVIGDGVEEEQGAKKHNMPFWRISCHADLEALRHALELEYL
Target sequence (Q15475 whole entry, looked up): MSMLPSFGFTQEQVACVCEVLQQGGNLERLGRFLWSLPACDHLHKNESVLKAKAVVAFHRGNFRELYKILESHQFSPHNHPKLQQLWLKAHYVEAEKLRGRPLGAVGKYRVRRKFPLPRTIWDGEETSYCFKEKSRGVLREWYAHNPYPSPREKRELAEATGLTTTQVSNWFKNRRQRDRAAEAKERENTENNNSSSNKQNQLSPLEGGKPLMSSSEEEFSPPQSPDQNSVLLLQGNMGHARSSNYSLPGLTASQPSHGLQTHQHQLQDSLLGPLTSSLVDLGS
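Homogeneous AlphaScreen proximity assay pairing GST-Six1 with His-tagged Eya2 (added as 5X mix: 250 nM and 500 nM) in 50 mM Tris pH 8.0, 300 mM NaCl, 1 mM TCEP. Glutathione donor and nickel acceptor beads; 1 h, 37 °C, dark.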
TRPML1 ag: qHTS for Agonists of the Human Mucolipin Transient Receptor Potential 1 (TRPML1); activation, % (concentration not given with the values); 410,000 tested, 0.12% active; TRPML1-expressing cells, Ca2+ dye fluorescence, FDSS; host cell line not named in the record; reference of the full effect not given here; in the data active = activation above about 50%; inconclusive = about 30% to 50%; inactive = below about 30%; note: 0% is about no effect; the text of the record puts the active cut at 80%
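Cells: TRPML1-DL, 1X Tet inducer, ~16 h at 37 degrees C/5% CO2. Dye: ABD Ca8 no-wash + quencher, 45-90 min RT. Read: 10 s baseline, compound add, 110 s agonist phase; 54-4 EC80 (4uM final), 110 s antagonist phase.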
* = called active by the depositor; ? = inconclusive; . = not tested or not shown; & = joins results of further samples; [ ] = dose if it differs, or a comment.

smiles	D2 agonist	D2 potentiator	TRPML1 inh	PINK1 expr mod	Six1-Eya2 blk	TRPML1 ag
COc1cc(/C=N/NC(=O)c2cccnc2)ccc1OC(=O)c1ccc([N+](=O)[O-])cc1	11.5	-15.8	-0.6	-1.0%	-10.1	0.2
CCOC(=O)c1c(C)oc2nc(C)nc(N(CC(C)C)CC(C)C)c12	.	.	4.6	2.6%	.	0.1
COC(=O)c1cc(C)[nH]c2c(C)cc3nc4ccccc4c3c12	4.1	-7.0	28.7	-1.6%	16.8	1.8
C[C@@H](CN=[N+]=[N-])CN1CC[C@H](O)CCC1=O	-1.4	-3.5	-18.6	1.8%	15.0	-0.5&0.1
CCc1ccc(-c2cc(C)no2)cc1S(=O)(=O)N1CCC(C)CC1	-1.7	-4.6	72.4	0.6%	9.1	-0.5
CCCCNC(=O)CSc1nc2ccsc2c(=O)n1CCCC(=O)NCCc1ccc(S(N)(=O)=O)cc1	4.0	-7.0	-3.8	-1.1%	2.2	0.6
CCN(CC)C(=O)Oc1cc(=O)n(C)c2ccccc12	-5.2	-14.1	6.9	4.9%	8.2	-0.2
O=C(CSc1nnc(CNC(=O)c2cccs2)o1)Nc1ccc(F)cc1F	-4.5	-12.0	10.0	-0.6%	4.7	-1.0
Cc1ccc([N+](=O)[O-])cc1NC(=O)CN(C)CCOc1ccccc1	-0.3	-21.0	.	0.6%	1.8	.
COc1ccc(-c2[nH]ncc2N=Nc2ccccc2)cc1	8.8	-3.2	39.8	5.1%	-19.4	2.0
COCCN(C(=O)COC(=O)/C=C/c1ccc2c(c1)OCO2)c1c(N)n(Cc2ccccc2)c(=O)[nH]c1=O	-3.4	-15.6	-9.5	1.0%	3.6	-0.8
CC1CCCN(CC(=O)Nc2ccc(S(=O)(=O)N3CCCCCC3)cc2)C1 (configuration not stated)	-1.9	-7.7	-2.1	-3.3%[38.3 µM]	-8.5	-0.3
COc1ccccc1OCC(=O)Nc1c(C(=O)c2ccc(F)cc2)oc2ccccc12	.	.	11.0	0.6%	.	2.2
COc1ccc(OCC(=O)Nc2ccc3c(c2)nc(CCN2CCCCC2)n3C)cc1	0.5	-30.3	-8.3	-0.1%	-1.2	0.2
CCc1ccc(NC(=O)C2CCCN(c3nnc(C)c4c(C)n(-c5ccccc5)nc34)C2)cc1 (configuration not stated)	.	.	13.2	3.3%	.	1.0
COC(=O)c1ccccc1OCCCCN1CC(C)OC(C)C1 (configuration not stated)	-1.2	-33.7	-5.7	-1.4%	1.1	-0.6
COc1ccc(C(CNC(=O)c2cccc(S(=O)(=O)Nc3ccc(F)cc3)c2)N2CCCCC2)cc1 (configuration not stated)	-3.0	-6.7	-6.7	1.0%	-3.8	1.7
COC(=O)c1nnn(-c2ccsc2C(=O)OC)c1C(=O)OC	-0.3	3.0	?	0.1%	6.4	-1.3
Cc1cccc(NC(=O)c2ccc([N+](=O)[O-])s2)c1C	4.0	8.2	-18.7	?	-2.2	0.7
O=C(Nc1ccccc1Cc1ccccc1)c1ccc2c(c1)SC1=NS(=O)(=O)CCN12	3.3	-4.6	-2.9	-3.4%	-3.6	2.0
CCN1CC=C2C(C1)C(c1ccc(Cl)s1)C(C#N)=C(N)C2(C#N)C#N (configuration not stated)	-1.9	-12.3	1.5	6.31µM*	-6.0	1.3
CN1C(=O)N(c2nnc(C(C)(C)C)s2)C(=O)C1c1ccccc1 (configuration not stated)	-0.9	1.8	5.3	-0.3%	3.5	0.6
COc1cc(NC(=O)c2ccccc2OCc2ccccc2)cc(OC)c1OC	-0.5	55.6*	.	-0.6%	0.9	.
Cc1ccc(S(=O)(=O)CCC(=O)NCc2ccc(Cl)cc2)cc1	-0.8	8.7	-14.5	0.0%	0.4	3.3
O=C(CN1CCN(Cc2ccccc2Cl)CC1)N/N=C/c1ccccn1	-2.1	-30.3	1.2	-0.8%	-18.4	-0.3

Look-ups from above.
Result for COCCN(C(=O)COC(=O)/C=C/c1ccc2c(c1)OCO2)c1c(N)n(Cc2ccccc2)c(=O)[nH]c1=O under TRPML1 inh: -9.5
Result for CCc1ccc(-c2cc(C)no2)cc1S(=O)(=O)N1CCC(C)CC1 under TRPML1 inh: 72.4

(list continues)
smiles	D2 agonist	D2 potentiator	TRPML1 inh	PINK1 expr mod	Six1-Eya2 blk	TRPML1 ag
COCCCNC(=O)/C(C#N)=C/c1c(N2CCN(C)CC2)nc2c(C)cccn2c1=O	-1.9	-6.5	-1.1	0.5%	-2.8	-0.7
Cc1nc(SCC(=O)Nc2cc(C)on2)c2c3c(sc2n1)CCCC3	-2.0	-1.4	-6.6	17.3%[38.3 µM]	0.1	1.2
CS(=O)(=O)N1N=C(c2cccs2)CC1c1ccc(F)cc1 (configuration not stated)	0.1	-5.5	.	0.6%	0.8	.
O=C(O)c1cc(S(=O)(=O)Nc2cccc(Oc3ccccc3)c2)ccc1Br	-2.1	-3.9	9.0	0.0%	7.7	-1.0
O=C(C[n+]1ccccc1)N/N=C/c1cc(Br)ccc1O	-6.0	-19.2	1.2	2.2%	-87.9*	-0.9
CCOC(=O)c1sc(NC(=O)c2cc3nc(-c4ccccc4)cc(C(F)(F)F)n3n2)c(C(=O)OCC)c1C	.	.	26.3	1.0%	.	-0.1
CN1C(C(=O)Nc2cccc(O)c2)=CC(c2ccco2)=NS1(=O)=O	4.6	-0.9	-3.3&8.0	1.8%&-1.3%	-6.7	0.7&0.7
CCOP(=O)(OCC)C(NC(=O)c1cccs1)c1ccccc1 (configuration not stated)	4.3	-1.8	11.9	-1.5%	9.8	1.0
CCN(CC)c1ccc(-c2n[nH]c(=S)n2-c2ccccc2)cc1	-2.8	-8.6	-11.6	7.9%	-13.0	1.8
CN1C(=O)N(CC(=O)N2CCN(S(=O)(=O)c3ccc(Cl)s3)CC2)C(=O)C12CCCCC2	-0.8	-6.6	-6.6	1.1%	5.7	0.9
CCOc1ccc(S(=O)(=O)Nc2cccc(C)c2)c2cccnc12	13.9	13.7	1.4&3.3	5.2%&8.2%	-9.1	1.2&1.0
COC(=O)c1ccc(/C=N/NC(=O)c2ccc3nc[nH]c3c2)cc1	-1.0	-5.3	-12.7	1.7%	-4.3	0.8
O=C(O)CC(NC(=O)OCc1ccccc1)c1ccccc1 (configuration not stated)	-3.6	-4.7	12.4	-1.6%	-0.3	-0.7
COC(=O)Cc1ccc(NC(=S)N2CCCC(CO)C2)cc1 (configuration not stated)	-0.1	18.8	-2.0	-0.8%	0.2	2.7
CC(C)c1nnc(NC(=O)CCC(=O)NC2CC2)s1	9.6	-4.3	-1.7	2.3%	7.0	0.5
CCc1nc2ccc(C(=O)Nc3cc(-c4ccccc4)ccc3OC)cn2c1N(CC)CCN(C)C	3.0	-9.5	.	-0.6%	-15.4	0.4
O=C(Nc1ccc(F)cc1)Nc1ccc([N+](=O)[O-])cn1	0.1	-4.7	-10.9	4.8%	6.0	0.5
C=CCOc1ccc(C2C(C#N)=C(N)N(N(C)C)C3=C2C(=O)CCC3)cc1 (configuration not stated)	3.1	7.9	7.9	0.1%	-3.2	0.1
COc1cccc(C(=O)Nc2cc(C)on2)c1OC	-3.2	-7.6	2.2	3.4%	1.1	-1.1
COc1ccccc1NC(=O)CSc1nc2ccccc2c(=O)n1C	?	13.8	21.8	1.5%	-16.1	-0.1
Cc1oc2c(cc(NS(=O)(=O)c3ccc(Cl)cc3)c3ccccc32)c1C(=O)O	7.5	10.8	1.1	-1.4%	-9.2	-0.9
O=C(CN(C(=O)c1csnn1)c1cccc(Cl)c1)NC1CCCC1	-3.6	-6.9	5.5	1.7%	-11.6	-1.0
COc1cccc(C(C(=O)NC2CCCCC2)N(C(=O)CNC(=O)c2ccco2)c2cccnc2)c1 (configuration not stated)	0.5	-34.1	0.9	2.4%	-4.4	-1.4
CCCC(=O)Nc1ccc(Nc2ccccc2)cc1	0.2	-12.9	3.2	-1.3%	8.9	-0.3
CCN(CC(=O)NC(C)C)C(=O)C(CCSC)NC(=O)c1ccccc1OC (configuration not stated)	-0.5	5.5	-3.5	0.5%	2.7	0.0
CSc1nnc(-c2ccncc2)n1/N=C/c1cn(-c2ccccc2)nc1-c1ccc(Cl)cc1	-0.9	-0.5	-21.9	0.0%	7.4	-0.3
COc1ccc(-c2nn(CC(=O)N(C)C)c(=O)c3ccccc23)cc1	-1.1	-11.2	10.9	-1.7%	0.5	-0.2
Cc1c(Cl)cccc1N1C(=O)c2ccccc2C1=O	0.2	-5.4	5.2	1.7%[38.3 µM]	2.7	0.1
C#Cc1ccc(C(=O)NCc2ccc(N3CCCC3=O)cc2)cc1	-4.7	-4.5	-14.5	0.2%	1.0	1.6
Cc1cc(F)ccc1NCC(=O)Nc1ccc(Br)cc1C	0.3	-11.9	-5.9	4.6%	-0.9	2.7
COCCc1nn2c(=O)cc(COC(=O)C(c3ccccc3)c3ccccc3)nc2s1	.	.	-6.0	3.0%	.	1.2
COc1cc(OC)c2c(-c3cccc(-c4sccc4C(C)=O)c3)cc(=O)oc2c1	1.7	-1.1	2.7	6.0%	-8.4	-0.7
COc1ccc(C(=O)Nc2ccc(-c3nnc4n3CCCCC4)cc2)cc1OC	.	.	53.2	-0.1%	.	-0.7
COc1ccccc1CNC(=O)CCS(=O)(=O)c1ccc(Cl)cc1	-1.6	0.4	0.6	-2.1%	6.3	-0.4
O=C(NCC(c1cccs1)N1CCOCC1)c1cccc([N+](=O)[O-])c1 (configuration not stated)	-1.1	-7.7	?	9.2%	5.7	0.0
COc1cc(Cl)c(C)cc1NC(=O)CSc1cc(-c2ccccc2)nc(C)n1	.	.	16.6	3.9%	.	1.3
O=C(OCc1cc(=O)n2nc(C3CCCCC3)sc2n1)c1ccc(F)cc1	.	.	11.6	-0.2%	.	-1.1
CCOC(=O)c1cc2c(=O)n3ccccc3nc2n(CCOC)c1=NC(=O)c1c(-c2ccccc2Cl)noc1C	.	.	-8.5	10.1%	.	1.2
CCC(=O)N1CCc2cc(S(=O)(=O)NC(Cc3ccccc3)C(=O)O)ccc21 (configuration not stated)	-6.1	-11.9	2.7&11.8	2.2%&-0.1%	-7.5	-0.4&1.1
Cc1nc2cc(C(F)(F)F)ccc2n1C1CCN(C(=O)N2CCOCC2)CC1	1.9	3.6	-12.5	-0.5%	4.1	0.4

Bioassay records (PubChem BioAssay)
